miR-21 reporter: miR-21 reporter, rising signal; HeLa miR-21 FLuc reporter, luciferase, 48 h; Potency, µM (titrated, usually from 38.3 µM), without a hit: top-dose reporter change, positive = more light; AID 2288; 340,000 tested, under 10 active; active = well fitted rising curve with a large enough effect; inconclusive = small, poorly fitted or top-dose-only effect; inactive = no such curve, though single readings can be large or run the other way;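 further: % of control where 0% means no effect; miR-21 action dims this reporter so a rising signal means less miR-21 action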
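HeLa miR-21-FLuc reporter line, endogenous miR-21; 2000 cells/well in DMEM/10% FBS; compound titration up to ~40uM final, 48 h, 37 degree Celsius; luciferase detection reagent, 15 min lysis, CCD luminescence.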
Rango-impB inh: inhibitors of Rango-importin beta complex formation; 340,000 tested, 0.031% active; Q14974; Potency, µM (titrated, usually from 92.2 µM), without a hit: top-dose inhibition of complex formation; Rango CFP/YFP FRET sensor + importin beta, 45 min; active = rising FRET ratio curve, often small or poorly fitted; inconclusive = mostly compound fluorescence or quenching in the first reads; inactive = flat curves in all reads;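 further: potency means the concentration at half of the fitted maximal effect; 0% = DMSO wells and 100% = buffer wells lacking importin beta; nearly all actives have a fitted effect of over 15% in size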
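Inhibition scored from the CFP 486 nm/YFP 530 nm FRET ratio 45 min after adding 0.125 microM importin beta to 50 nM Rango biosensor preincubated 5 min with compound (room temperature, PBS with DTT, Tween-20, BSA). No-importin wells as positive control.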
GLA inh pH 4.5: blocks human alpha-galactosidase A at pH 4.5; purified enzyme, 4-MU-alpha-Gal fluorescence, pH 4.5; P06280; activity change, negative = inhibition, % at 105 µM; 230,000 tested, under 10 active; inconclusive = small, poorly fitted or top-dose-only inhibition, or a rising curve; inactive = flat fitted curve, though single readings scatter; no compound was filed as active;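 further: 0% = full activity with enzyme and -100% = basal without enzyme; dose as in the result columns while the protocol names 77 µM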
Target sequence (P06280 whole entry, looked up): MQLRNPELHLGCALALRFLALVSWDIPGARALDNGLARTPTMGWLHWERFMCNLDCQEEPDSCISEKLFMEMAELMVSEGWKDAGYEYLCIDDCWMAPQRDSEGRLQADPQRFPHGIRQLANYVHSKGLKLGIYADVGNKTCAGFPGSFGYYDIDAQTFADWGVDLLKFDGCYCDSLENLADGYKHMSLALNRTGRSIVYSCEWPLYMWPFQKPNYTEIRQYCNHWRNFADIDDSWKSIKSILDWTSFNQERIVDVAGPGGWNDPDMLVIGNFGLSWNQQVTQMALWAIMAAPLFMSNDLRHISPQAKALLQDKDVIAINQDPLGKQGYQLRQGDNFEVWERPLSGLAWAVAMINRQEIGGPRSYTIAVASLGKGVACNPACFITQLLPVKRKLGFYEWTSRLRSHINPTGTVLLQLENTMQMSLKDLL
Rango dissoc inh: prevents RanGTP from dissociating the Rango-importin beta complex; Biochemical FRET Rango-importin beta, RanGTP-induced dissociation; Potency, µM (highest dose often 46.1 µM), without a hit: at the highest dose activity change, negative = inhibition; 340,000 tested, 0.071% active; active means falling FRET ratio curve, often poorly fitted, with flat reads before Ran was added; inconclusive means other falling curves, or compound fluorescence or quenching; inactive means flat or rising ratio curve;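 further: potency means the concentration at half of the fitted maximal effect; % of control where 0% means no effect; nearly all actives have a fitted effect of over 45% in size; -100% = wells without RanGTP and RCC1; the record marks most hits as doubtful in a second field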
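Compounds sat 5 min at room temperature with 0.1 uM Rango biosensor plus 0.25 uM importin beta, then FRET pre-read. RanGTP-RCC1 (0.6 uM Ran, 2mM GTP, 0.2 uM RCC1) added for 45 min, and the CFP/YFP post-read measured blocked complex dissociation.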
Active calls of the source: *; ? = inconclusive; . = no result given; [ ] = dose if it differs, or a comment.

Value order – Rango-impB inh	miR-21 reporter	Rango dissoc inh	GLA inh pH 4.5
> c1ccc2c(c1)nc(N1CCOCC1)c1nnnn12
    ?	-20%	?	4
> CCCC1(CCC)NC(=O)N(CC(=O)Nc2ccccc2OC)C1=O
    -6.4%	-3%	1%	7
> O=C(NC1CCCC1)c1cc2c(ccc3ccccc32)o1
    -0.3%	-45%	-3%	-7
> Nc1ccc2nc[nH]c2c1
    1.9%	17%	-2%	-16
> COc1cccc(OCc2cc(C(=O)NC(C)c3cnn(C)c3C)no2)c1 (centres undefined)
    -0.6%	-38%	-16%	.
> O=C(Nc1ccon1)c1ccc(OC2CCCC2)cc1
    2.1%	-51%	-1%	-5
> CC(C)(C)NC(=O)c1ccc2nsnc2c1
    2.4%	0%	-8%	-6
> CCn1nc(C)c(CNC(=O)Nc2ccc3c(c2)OCO3)c1C
    -3.2%	-33%	3%	-4[21.1 µM]
> COc1cc(/C=N/NC(=O)c2ccncc2)ccc1OCCN1CCCCC1
    -1.2%	-39%	25%	-6
> Cc1cc(C)cc(OC(=O)CCN2C(=O)c3ccccc3C2=O)c1
    -0.9%	-4%	-2%	2
> O=C(c1ccc(Oc2ccc([N+](=O)[O-])cc2)cc1)N1CCCCCC1
    0.8%	11%	6%	.
> COC(=O)c1c(C)[nH]c(C(=O)CSc2ncnc3sc(-c4ccccc4)cc23)c1C
    -3.5%	3%	10%	-3
> COc1ccccc1N1CCN(S(=O)(=O)CCNC(=O)C2CCCCC2)CC1
    0.0%	.	8%	.
> COc1cc(/C=N/NC(=O)c2cccnc2)ccc1OS(=O)(=O)c1ccc(C)cc1
    -6.8%	0%	-15%	-12
> COC(=O)C1CCN(c2cc(=O)n(Cc3ccc(F)cc3)c(=O)[nH]2)CC1
    0.8%	-4%	-13%	7

Reformatted in markdown: part of the list above.
| mol | Rango-impB inh | miR-21 reporter | Rango dissoc inh | GLA inh pH 4.5 |
| --- | --- | --- | --- | --- |
| COc1cccc(OCc2cc(C(=O)NC(C)c3cnn(C)c3C)no2)c1 (centres undefined) | -0.6% | -38% | -16% | . |
| COc1cc(/C=N/NC(=O)c2ccncc2)ccc1OCCN1CCCCC1 | -1.2% | -39% | 25% | -6 |
| COc1ccccc1N1CCN(S(=O)(=O)CCNC(=O)C2CCCCC2)CC1 | 0.0% | . | 8% | . |
| CCCC1(CCC)NC(=O)N(CC(=O)Nc2ccccc2OC)C1=O | -6.4% | -3% | 1% | 7 |

Additional structures.
Value order – Rango-impB inh	miR-21 reporter	Rango dissoc inh	GLA inh pH 4.5
> CC(CCC(C)OC(=O)c1ccccc1C(=O)O)OC(=O)c1ccccc1C(=O)O (centres undefined)
    1.5%	-3%	22%	.
> COCCN(C(=S)Nc1cc(C)cc(C)c1)C(C)c1ccco1 (centres undefined)
    -0.4%	-1%	-1%	5
> CC(=O)c1ccc(OCC(O)CN2CCN(S(=O)(=O)c3c(C)cc(C)cc3C)CC2)cc1 (centres undefined)
    -0.4%	0%	5%	.
> O=c1ccc2cc(S(=O)(=O)Nc3ccc(Br)cc3)ccc2o1
    0.0%	12%	5%	.
> OCCN1CCOCCOCCN(CCO)CCN(CCO)CC1
    -1.0%	-2%	-2%	0
> O=C(CCC1CC(=O)Nc2ccccc21)NCc1cccnc1 (centres undefined)
    -3.8%	-5%	38%	1
> O=C1C=CN(Cc2ccccc2)C(c2ccccc2)C1 (centres undefined)
    0.4%	.	2%	.
> O=C(O)CCCC(=O)N1CCN(C(c2ccccc2)c2ccccc2)CC1
    0.0%	-4%	-1%	-10
> C#CCCOC(=O)N1C2=NC(C(=O)OC)=C(C(=O)OC)[C@@H]3N(C)c4ccc(OC)cc4[C@]23C[C@H]1C(=O)OC
    -3.4%	.	1%	7
> Cc1cc(C)c(NC(=O)CS(=O)CC(=O)Nc2cccnc2)c(C)c1 (centres undefined)
    ?	-1%	-9%	0
> COc1ccc(N2CCN(C(=O)COC(=O)c3ccco3)CC2)cc1
    1.2%	0%	2%	.
> CC(=O)N1c2ccc(S(=O)(=O)N3CCCCC3)cc2CC1C(=O)NCc1ccccc1C (centres undefined)
    -0.3%	-3%	1%	.
> O=c1[nH]c(CN2CCCCC2)nc2ccccc12
    3.3%	-12%	2%	-1
> C/C(CC(=O)NC1CCCCC1)=N\NC(=O)Cc1ccc(-c2ccccc2)cc1
    1.4%	-4%	14%	3
> O=C(O)c1c2c(nc3ccccc13)/C(=C/c1ccccc1[N+](=O)[O-])CCC2
    ?	-36%	-23%	.
> CC1CC(=O)NN=C1c1cccs1 (centres undefined)
    -0.3%	-17%	9%	1
> CC(=O)Oc1ccc(C(=O)Nc2ccc3c(c2)OCCO3)cc1
    -1.7%	-15%	-12%	.
> Cc1ccc(-c2nc(S(=O)(=O)c3ccc(C)cc3)c(SCC(N)=O)o2)cc1
    -1.1%	0%	-6%	.
> Cc1ccc(CSc2nc3c(c(=O)[nH]2)CCC3)cc1
    2.5%	-13%	1%	-2
> Cc1cccc(NC(=O)C2CCCN2/C=C/C(=O)C(F)(F)F)c1C (centres undefined)
    -2.7%	-6%	-12%	-2
> Cc1cc(C)n(CC(=O)c2ccc(Cl)cc2)n1
    -2.1%	4%	-20%	10
> O=C(NCCCN1CCOCC1)c1ccc(CSCc2cccc(Cl)c2)o1
    1.0%	0%	5%	2
> O=C(CCCN1C(=O)c2ccccc2C1=O)N1CCN(c2ccccn2)CC1
    0.1%	-1%	-2%	-14
> CN(C)S(=O)(=O)c1cc(NC(=O)c2cc(=O)[nH]c3ccccc23)ccc1Cl
    .	-1%	.	-2
> O=C(CSc1nc2c(sc3ccccc32)c(=O)n1-c1ccccc1)NCc1ccco1
    -2.8%	3%	?	7
> COc1cccc(-c2sc3ccc(OC)cc3c2C#CC(C)(C)O)c1
    ?	.	-5%	.
> CCCCn1c(SCC(=O)NCc2ccco2)nc2ccccc2c1=O
    0.6%	1%	-2%	5
> COc1cccc(CN2CCC(n3nccc3NC(=O)C3CC3)CC2)c1
    1.4%	-2%	-6%	.
> COC(=O)[C@H](C(C)C)n1c(C)c(C(C)=O)c(C(C)=O)c1C
    -2.3%	-2%	-16%	-8
> CC(=Nc1ccc(C)c(C)c1)C1=C(O)CSC1=O
    -2.2%	-28%	-13%	1
> Cc1ccccc1OCc1nnc(SCC(=O)NCc2ccco2)n1C
    -1.2%	0%	?	-11
> O=C(NCCc1ccccc1)C(=O)NCC1CCCN1S(=O)(=O)c1cccs1 (centres undefined)
    -0.4%	.	8%	.
> N#Cc1cnc(SCCc2ccccc2)nc1N
    -1.2%	-57%	?	11
> Cc1nc2ccccc2c(=O)n1Cc1ccc([N+](=O)[O-])cc1
    2.0%	-6%	-8%	.
> CS(=O)(=O)N(CC(=O)N1CCN(c2ccccc2)CC1)C1CCCCC1
    0.1%	2%	3%	-3
> O=C(O)Cn1c(=O)c(-c2ccccc2)nc2ccccc21
    -2.8%	4%	-1%	.
> CCn1c(=O)c2c3c(sc2n2c(SCc4ccc(F)cc4)nnc12)CCCC3
    -3.5%	.	-20%	.
> N#Cc1ccc(NC(=O)Cn2c3[n+](c4ccc(C(F)(F)F)cc42)CCCCC3)cc1
    0.1%	4%	-7%	7
> COc1ccc(C2(C(=O)Nc3nncs3)CCCC2)cc1
    -2.2%	0%	0%	2
> CCN(CC)S(=O)(=O)c1ccc(NCC2COc3ccccc3O2)c([N+](=O)[O-])c1 (centres undefined)
    -6.4%	0%	8%	-3
> C=C(C)Cn1c(NCCOC)nc2c1c(=O)[nH]c(=O)n2C
    6.0%	-1%	-10%	.
> CC(/C=N/n1c(COc2ccccc2)n[nH]c1=S)=C\c1ccccc1
    -0.2%	0%	0%	13
> COc1ccc(CN(C)C(=O)c2cccc(NS(=O)(=O)c3ccccc3)c2)c(OC)c1
    6.9%	4%	19%	.
> COc1cccc(C(=O)Nc2nnc(SCC(=O)NC3CC3)s2)c1
    -0.8%	-8%	-7%	.
> COc1cc2c(cc1OC)CN(C(=O)CCNS(=O)(=O)c1ccc(Br)cc1)CC2
    -0.7%	.	0%	.
> CN(C)c1cc(NC(=O)CN2CCOCC2)c2ccccc2n1
    -3.0%	3%	-4%	13
> Cc1cc(C(=O)CSc2n[nH]c(N)n2)c(C)n1-c1ccccc1
    -1.8%	-38%	-14%	-17
> CNC(=S)Nn1cnc2ccccc21
    -2.7%	-2%	?	0
> CC1=C(C(=O)O)N2C(=O)C(NC(=O)c3nn(C)c(C)c3Cl)C2SC1 (centres undefined)
    4.0%	0%	7%	3[21.1 µM]
> O=c1c2c(nc3cc(-c4ccc(Br)cc4)[nH]n13)CCCC2
    3.1%	-3%	-6%	4
> CCN(CC(=O)NCc1cccs1)C(=O)/C=C/c1ccc(Cl)c(Cl)c1
    -2.2%	.	?	.
> CSc1ccccc1NC(=O)Nc1ccc(Cl)cc1
    1.7%	-9%	?	2
> O=C(/C=C/c1ccccc1)CC(O)(c1ccccc1)C(F)(F)F (centres undefined)
    5.0%	?	?	-1
> O=C(NC1CC1)c1ccc(CS(=O)c2ccccc2)o1 (centres undefined)
    0.9%	-3%	3%	.
> COc1ccccc1-n1c(CNc2ccc(F)cc2)nnc1SCC(=O)Nc1cc(C)on1
    2.2%	3%	2%	5
> CCOc1ccc(NC(=S)/C(=C(\[O-])c2ccc(C)c([N+](=O)[O-])c2)[n+]2ccccc2)cc1
    ?	-23%	?	-2
> Clc1cccc(Nc2ncnc3c2cnn3-c2ccccc2)c1
    0.9%	8%	-8%	-11
> COc1ccc(S(=O)(=O)NCC2CCCN(C(=O)c3occc3C)C2)cc1 (centres undefined)
    -0.1%	-2%	0%	1
> Cc1ccc(Br)cc1S(=O)(=O)Nc1cccnc1
    -0.8%	-4%	19%	.
> CN(C(=O)COC(=O)c1ccccc1Cc1ccccc1)c1c(N)n(Cc2ccccc2)c(=O)[nH]c1=O
    -1.2%	.	-12%	.

(more compounds)
Value order – Rango-impB inh	miR-21 reporter	Rango dissoc inh	GLA inh pH 4.5
> Nc1cccc(C(=O)OCC(=O)c2ccccc2)c1
    1.7%	-74%	-12%	-5
> COc1ccc(-n2nnnc2/C=C\Nc2ccc(C)cc2)cc1
    ?	-3%	-15%	4
> COc1ccc(C(CC(=O)N2CCCC(C)C2)c2c(O)cc(OC)cc2OC)cc1 (centres undefined)
    -6.2%	9%	-8%	1
> CS(=O)(=O)N(CCc1ccccc1)CC(=O)N1CCCC1
    2.8%	5%	10%	2
> CN(C)S(=O)(=O)Oc1ccc(C(=O)Nc2cccc(C(F)(F)F)c2)cc1
    -0.4%	25%	1%	-10
> COc1cc(F)cc(-c2ccc3c(c2)c(-c2cccs2)c(-c2cc(OC)cc(OC)c2)n3C)c1
    -0.2%	.	-11%	.
> Cc1ccccc1CN1CCC(n2nccc2NC(=O)c2ccc3c(c2)OCO3)CC1
    -1.9%	-18%	-4%	.
> Cc1cc2c(cc1S(=O)(=O)CCC(=O)N1CC(C)CC(C)C1)OCC(=O)N2 (centres undefined)
    -5.0%	0%	19%	.
> CCOc1ccc(NC(=O)CN2C(=O)C(C)SC(C)C2=O)cc1 (centres undefined)
    -3.4%	4%	-22%	-2
> COc1ccc(NC(=O)COC(=O)C2C3CC4OC(=O)C2C4C3)cc1 (centres undefined)
    0.3%	0%	0%	.
> O=C(NCCc1ccc(Cl)cc1)c1ccc(S(=O)(=O)N2CCCC2)cc1
    -2.5%	.	2%	.
> O=C1N[C@H](Cc2c[nH]c3ccccc23)COC(=O)[C@H](Cc2ccc(F)cc2)C/C=C\C[C@H]1CC(=O)N(CCO)Cc1ccccc1
    0.9%	.	0%	.

Source: PubChem (National Center for Advancing Translational Sciences (NCATS))

Some of the compounds tested; rates above refer to the full screens.
